High-throughput results deposited in PubChem by Vanderbilt University.
GIRK2 act – activators of human GIRK2 potassium channels | calls only for hits at 25 µM | P48051 | AID 1259325 | hit rate 0.05% among 63,000 | HEK293-GIRK2 thallium flux, Thallos fluorescence;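 active means among the strongest 0.2% of first-round signals and kept after retests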;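 further: first round at about 10 µM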
Target sequence (P48051 whole entry, looked up): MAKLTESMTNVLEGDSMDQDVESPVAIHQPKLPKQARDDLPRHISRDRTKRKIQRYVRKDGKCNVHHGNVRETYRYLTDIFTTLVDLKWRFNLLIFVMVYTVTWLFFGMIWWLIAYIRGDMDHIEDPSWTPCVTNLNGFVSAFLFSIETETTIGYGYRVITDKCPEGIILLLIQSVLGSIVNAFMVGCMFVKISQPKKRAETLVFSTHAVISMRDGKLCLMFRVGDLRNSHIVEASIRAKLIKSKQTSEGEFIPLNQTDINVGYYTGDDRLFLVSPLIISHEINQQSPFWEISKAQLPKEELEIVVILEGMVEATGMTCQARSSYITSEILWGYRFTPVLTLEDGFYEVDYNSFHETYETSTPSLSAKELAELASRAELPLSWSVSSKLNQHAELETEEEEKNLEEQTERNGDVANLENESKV
Calls only; i = inactive. This is a subset; rates above refer to the full screens.

cpd	SMILES	GIRK2 act
1	COc1ccccc1NC(=O)c1ccc(S(=O)(=O)N(C)C2CCCCC2)cc1	i
2	CN(C)c1cccc(C(=O)NC2CCN(Cc3noc(-c4ccccc4)n3)C2)c1 (centres undefined)	i
3	O=C(Cc1ccc([N+](=O)[O-])cc1)NCCOc1ccc2c(c1)OCO2	i
4	O=C(c1cc(C2CC2)on1)N1CCn2c1nc1ccccc12	i
5	Cc1c(C)n2c3c(=O)n(C)c(=O)n(C)c3nc2n1-c1ccccc1OCc1ccccc1	i
6	Cc1noc(C)c1CN1CCN(C(=O)CC2CCCC2)CC1	i
7	CC(=O)c1ccc(NC(=O)CSc2nccn2-c2ccc(C(=O)NCc3ccccc3)cc2)cc1	i
8	Cn1c(=O)c2c(nc3n2CCN3c2ccc(OCCN3CCCCC3)cc2)n(C)c1=O	i
9	COc1cc(/C=C2\Oc3cc(OC(=O)c4ccc([N+](=O)[O-])cc4)ccc3C2=O)cc(OC)c1OC	i
10	O=c1c(-c2ccc(Cl)cc2)coc2cc(OCCN3CC4CC(C3)c3cccc(=O)n3C4)ccc12 (centres undefined)	i
11	Cc1cc(CCNC(=O)Nc2ccc3c(c2)OCO3)on1	i
12	O=C1CCSCC(C(=O)NC2CCSC2=O)N1 (centres undefined)	i
13	Cc1oc(-c2ccccc2)nc1CSc1nc2ccccc2c(=O)n1C	i
14	Cc1noc(CNC(=O)C2CCN(C(=O)Cn3c(=O)oc4ccccc43)CC2)n1	i
15	N#Cc1cnc2ccccc2c1N1CCC(C(=O)NCc2ccc(Cl)cc2)CC1	i

Later entries.
cpd	SMILES	GIRK2 act
16	Cc1cccc(N2Cc3cc(Br)ccc3OCC2=O)c1C	i
17	O=C(Cn1ncccc1=O)N1CCN(c2ccccc2)CC1	i
18	CC(C)(C)C(=O)Oc1ccc2c(=O)c(-c3ccc(Cl)cc3)coc2c1	i
19	O=C(NCC1CCN(C2CCCC2)CC1)C(=O)NC1CCCCCC1	i
20	O=C(Cc1[nH]nc2ccc(F)cc12)NCCOc1ccc(F)cc1	i
21	Cc1nc2ccccn2c1C(=O)NCC(O)c1ccc2c(c1)CCO2 (centres undefined)	i
22	Cc1ccc(NCCNC(=O)Nc2ccc3c(c2)OCCO3)nn1	i
23	Cc1cn2c3c(=O)n(Cc4ccccc4)c(=O)n(C)c3nc2n1-c1ccccc1O	i
24	CS(=O)(=O)N1CCCc2ccc(NC(=O)C(=O)NCC(O)c3ccoc3)cc21 (centres undefined)	i
25	CCS(=O)(=O)c1ccc(OC)c(Nc2nccc(N(C)c3ccc4c(C)[nH]nc4c3)n2)c1	i
26	C=C1C(=O)O[C@H]2C(=O)O[C@H](CCCCCCCC)[C@@H]12	i
27	COc1cc(OC)cc(N2C(=O)C3N=NN(c4ccccc4)C3C2=O)c1 (centres undefined)	i
28	CCCNC(=O)C1CCN(c2ccc(SCC(=O)Nc3cc(C)c(Cl)cc3OC)nn2)CC1	i
29	Cc1cc(C)cc(C(=O)NC2CCN(C(=O)c3cn(-c4ccccc4C)nn3)CC2)c1	i
30	Cc1cc(CCNC(=O)c2ccc(S(=O)(=O)N3CCCC3)cc2)on1	i

The list continues:
cpd	SMILES	GIRK2 act
31	O=C(Nc1ccc(-n2nnc(C(=O)N3CCCC3)n2)cc1)c1ccc(F)cc1Cl	i
32	COc1ccc2c(c1)c(=O)c(S(=O)(=O)c1ccccc1)cn2CC(=O)Nc1ccc2c(c1)OCO2	i
33	O=c1c2ccccc2n(Cc2nc(-c3ccc4c(c3)OCO4)no2)c(=O)n1Cc1ccco1	i
34	COc1cccc(NC(=O)Cn2c(=O)c(CNc3ccccc3)cc3cc(OC)c(OC)cc32)c1	i
35	CCN(CC)CC#CCNC(=O)Nc1ccc(OC)cc1OC	i
36	N#Cc1nc(/C=C/c2cccs2)oc1N1CCN(C(=O)c2ccc(Cl)cc2)CC1	i
37	NC(=O)c1ccccc1OCC#CCNC(=O)c1nc2ccccc2s1	i
38	CC(=O)c1ccc(N2CCN(C(=O)CCn3c(=O)[nH]c4ccccc4c3=O)CC2)cc1	i
39	CCOc1cc(C(=O)NCC2CCN(Cc3ccsc3)CC2)cc(OCC)c1OCC	i
40	Cc1sc2nc(SCC(=O)Nc3ccccc3O)n(Cc3ccco3)c(=O)c2c1C	i
41	Cc1cc(NC(=O)Cn2nnc3ccccc32)no1	i
42	CCOc1ccc(-c2ccc(=O)n(CCNS(=O)(=O)c3ccccc3Cl)n2)cc1	i
43	Cc1cn2c3c(=O)n(Cc4c(Cl)cccc4Cl)c(=O)n(C)c3nc2n1C(C)C	i
44	CC(=O)c1ccc(S(=O)(=O)NCC2CCN(c3cnccn3)CC2)cc1	i
45	O=C(Nc1ccc(N2CCN(C(=O)Cc3cccs3)CC2)nn1)c1ccccc1	i

A second format for part of the listing above:
(31) O=C(Nc1ccc(-n2nnc(C(=O)N3CCCC3)n2)cc1)c1ccc(F)cc1Cl
  GIRK2 act = i

(32) COc1ccc2c(c1)c(=O)c(S(=O)(=O)c1ccccc1)cn2CC(=O)Nc1ccc2c(c1)OCO2
  GIRK2 act = i

(33) O=c1c2ccccc2n(Cc2nc(-c3ccc4c(c3)OCO4)no2)c(=O)n1Cc1ccco1
  GIRK2 act = i

(34) COc1cccc(NC(=O)Cn2c(=O)c(CNc3ccccc3)cc3cc(OC)c(OC)cc32)c1
  GIRK2 act = i

(next part)
cpd	SMILES	GIRK2 act
46	Cc1nccn1-c1ccc(C(=O)Nc2nc3ccccc3s2)nn1	i
47	COc1ccc(Cl)cc1C(=O)NCCNc1ccc(-n2cccc2)nn1	i
48	Cc1cc(C)n(-c2ccc(C(=O)N3CCC(C)CC3)nn2)n1	i
49	COc1ccc(Nc2cc(C)nc(NCCNC(=O)c3c(F)cccc3F)n2)cc1	i
50	Nc1c(C(=O)NC2CCCC2)c2nc3ccccc3nc2n1/N=C\c1cccnc1	i
51	Cc1ccc(C)c(S(=O)(=O)Nc2ccc(C(=O)N3CCN(C(=O)c4ccco4)CC3)cc2)c1	i
52	Cc1ccc(C(=O)N2CCN(S(=O)(=O)c3cc4c5c(c3)CCN5C(=O)CC4)CC2)cc1	i
53	COc1ccccc1C(=O)Nc1ccccc1NC(=O)Cn1cnc2ccccc21	i
54	Cc1ccc(C)c2sc(N(CC3CCCO3)C(=O)c3ccccc3Br)nc12 (centres undefined)	i
55	COc1ccc(NC(=O)c2cnc(N3CCc4ccccc4C3)nc2N)cc1	i
56	Cc1noc(-c2cccn(Cc3cc(F)ccc3F)c2=O)n1	i
57	Cc1csc(NC(=O)Cn2ncccc2=O)n1	i
58	CCOC(=O)c1oc2cc(OCC(N)=O)ccc2c(=O)c1-c1ccc(Br)cc1	i
59	COC(=O)c1ccc(C(=O)Nc2ccc3c(c2)C(=O)NCC3)cc1	i
60	CNC(=O)Cc1ccc(NC(=O)c2ccc(C(F)(F)F)cc2)cc1	i

(cont.)
cpd	SMILES	GIRK2 act
61	COc1ccc(NC(=O)N2CCOC(c3cc(Cl)cc(Cl)c3)C2)cc1 (centres undefined)	i
62	CCOc1ccc(S(=O)(=O)NCC(O)c2ccoc2)cc1F (centres undefined)	i
63	Cc1nc2cc(NC(=O)Cn3nc(-c4cccs4)ccc3=O)ccc2s1	i
64	O=C(Nc1nc(-c2ccccc2)cs1)C1CCCN1S(=O)(=O)c1cccs1 (centres undefined)	i
65	O=C(/C=C/c1cccs1)NC1CNC(=O)C1 (centres undefined)	i
66	CCOC(=O)c1ccc2[nH]c(C)c(C)c2c1	i
67	COc1cccc(NC(=O)Nc2cnc(OC)nc2)c1	i
68	C#CCOc1ccccc1CCCCCC(=O)NS(C)(=O)=O	i
69	Cc1cc(N2CCN(C(=O)Cn3cnc(-c4ccccc4)cc3=O)CC2)ncn1	i
70	O=C(c1ccco1)N1N=C(c2ccco2)CC1c1ccc2nccnc2c1 (centres undefined)	i
71	O=C(Nc1ccc2c(c1)N(C(=O)c1cccs1)CC2)c1cc(C2CC2)on1	i
72	O=C1OC2CC1N(C(=O)C1c3ccccc3Oc3ccccc31)C2 (centres undefined)	i
73	CCOc1ccc(-c2cc3c(=O)n(CC(=O)N4CCC(Cc5ccccc5)CC4)ccn3n2)cc1	i
74	Cc1nc(-c2nnc(NC(=O)c3cccc(Br)c3)o2)cs1	i
75	COCCN1CCC(CNC(=O)c2cc(OC)c(OC)c(OC)c2)CC1	i

Other records follow:
cpd	SMILES	GIRK2 act
76	CCOC(=O)c1cn[nH]c1S(=O)(=O)Nc1ccccc1OCC	i
77	Cc1ccccc1OCC(=O)NCCc1nc2c(c(C(F)(F)F)n1)CCCC2	i
78	Cc1nn2c(N3CCN(CCO)CC3)cc(C(C)(C)C)nc2c1-c1ccc(Cl)cc1	i
79	O=C(CCc1csc(NC(=O)Nc2cccc(Cl)c2)n1)NCc1ccc(F)cc1	i
80	CS(=O)(=O)c1ccccc1NC(=O)c1cc(Cl)sc1Cl	i
81	COc1cccc(NC(=O)NCCCN2CCN(c3ccccc3)CC2)c1OC	i
82	CCOc1ccccc1N1C(=O)/C(=C\c2cc(OC)c(OC)c(OC)c2)SC1=S	i
83	O=C(c1nc2ccccc2s1)N1CCC(CSc2ccccn2)CC1	i
84	O=S(=O)(c1ccc(Cl)s1)N1CCC(Oc2ncccc2Cl)CC1	i
85	COc1ccc(N/C=C(\C#N)c2nc(-c3ccccc3)cs2)cc1OC	i
86	CN1CCN(c2cc(NC(=O)c3ccc(S(=O)(=O)N4CCCCC4)cc3)ncn2)CC1	i
87	Cc1ccccc1NC(=O)CSc1nccn1-c1cccc(C(=O)NCc2cccs2)c1	i
88	COc1ccc(CCn2c(-c3ccccc3)nc3oc4ccccc4c(=O)c3c2=O)cc1	i
89	Clc1ccc(CNc2nccc(-c3cnn4ncccc34)n2)cc1	i
90	CC(C)Oc1ccc(Cc2ccc(NC3=NCCN3)cc2)cc1	i

(list continues)
no. | canonical_smiles | GIRK2 act
91 | CCc1c(C)nc2n(c1=O)CC(C(=O)N1CCC3(CC1)OCCO3)CS2 (centres undefined) | i
92 | Cc1c(C(O)=C2C(=O)C(=O)N(CCN3CCOCC3)C2c2ccccn2)cnn1-c1ccccc1 (centres undefined) | i
93 | COc1ccccc1-n1nnc(C(=O)OCc2ccccc2Cl)c1C | i
94 | CC(=O)O[C@H]1C[C@H](OC(C)=O)[C@]2(C)[C@H](CC[C@@]34O[C@@H]3C3=C(C)C(=O)O[C@@H]3C[C@H]42)C1(C)C | i
95 | O=C(COc1ccc2c(c1)C(=O)CC2)OCc1ccccc1 | i
96 | CSc1cccc(NC(=O)N2CCN(c3nc(N4CCOCC4)nc(-n4ccnc4)n3)CC2)c1 | i
97 | O=C(Nc1ccc2c(c1)CCCN2S(=O)(=O)c1ccccc1)Nc1ccc2c(c1)OCO2 | i
98 | O=C(NC1CCc2ccccc21)C1CCN(c2ncnc3c2oc2ccccc23)CC1 (centres undefined) | i
99 | Cc1ccc2nc(C3CN(S(=O)(=O)c4cccnc4)C3)[nH]c2c1 | i
100 | COc1cccc(C(=O)c2oc3ccccc3c2NC(=O)c2ccccc2[N+](=O)[O-])c1 | i
101 | O=C(Nc1nc2c(s1)CN(C(=O)c1ccc(Cl)s1)CC2)c1ccoc1 | i
102 | CCOc1ccccc1-c1noc(Cn2c(=O)n(CC(C)C)c(=O)c3ccccc32)n1 | i
103 | COCCn1c(=O)c2c(nc3n2CC(C)CN3c2ccc(Br)cc2)n(C)c1=O (centres undefined) | i
104 | CCOC(=O)c1ccc(NC(=O)Cn2nc3ccc(-c4ccc(Cl)cc4)nn3c2=O)cc1 | i
105 | CN(C)CCC=C1c2ccccc2CCc2ccccc21 | i
106 | Cc1oncc1C(=O)N(Cc1cccn1C)C1CC1 | i
107 | CCc1ccc(N2CCN(S(=O)(=O)c3ccc(NC(C)=O)cc3)CC2)cc1 | i
108 | CN(C)CCCn1c2c(c(=S)[nH]c1=O)CCCC2 | i
109 | Brc1c(NC2=NCCN2)ccc2nccnc12 | i
110 | COc1cccc(OC)c1C(=O)Nc1ccc(-n2c(C)nc3ccccc3c2=O)cc1C | i
111 | COc1ccc(-c2n[nH]n3c2nc(=O)c2ccc(C(=O)NCc4ccc(F)cc4)cc23)cc1 | i
112 | COc1ccc(-c2coc3c4c(ccc3c2=O)OCN(Cc2ccccc2)C4)cc1 | i
113 | Cc1ccc(Cn2cc(-c3noc(C(=O)Nc4ccc(Cl)cc4)n3)nn2)cc1 | i
114 | C=CCOc1ccccc1CN1C(=O)C(NC(C)=O)c2cc(Cl)ccc21 (centres undefined) | i
115 | O=C(Nc1nc(-c2ccc(Cl)s2)cs1)c1cc(-c2ccco2)on1 | i
116 | Cc1cncnc1N1CCN(C(=O)NCc2cccs2)CC1 | i
117 | COc1cccc(CNC(=O)c2snc(-c3ccccn3)c2N)c1OC | i
118 | Cn1cc(OCc2ccc(F)cc2)c(=O)cc1C(=O)N1CCN(c2ncccn2)CC1 | i
119 | CC12CCC(O)CC1=CCC1C2CCC2(C)/C(=N\N)CCC12 (centres undefined) | i
120 | COc1ccc(OCCCCn2c(CO)nc3ccccc32)cc1 | i

(cont.)
no. | canonical_smiles | GIRK2 act
121 | CC(=O)c1ccc(N2CCN(C(=O)C3COCC(=O)N3Cc3cccs3)CC2)cc1 (centres undefined) | i
122 | COc1ccc(CNC(=O)Cn2cccc(S(=O)(=O)N3CCCC3)c2=O)cc1 | i
123 | CCCn1c(C(=O)N2CCN(C(=O)c3ccco3)CC2)cc2c(=O)n(C)c(=O)n(C)c21 | i
124 | O=C(CNC(=O)c1ccccc1)Nc1cnc(N2CCN(c3ccccn3)CC2)nc1 | i
125 | Cc1nc(C)c(C(=O)Nc2cnc(Oc3ccccc3F)nc2)s1 | i
126 | c1ccc(-c2noc(-c3cn[nH]c3-c3ccccc3)n2)cc1 | i
127 | O=C(Cc1ccc(-c2ccccc2)cc1)N1C2CCC1COC2 | i
128 | Cc1csc(C(=O)NCCC(O)c2cccc3ccccc23)c1 (centres undefined) | i
129 | CCOC(=O)c1c(NCCc2c[nH]c3ccccc23)c2cccc(Cl)c2[nH]c1=O | i
130 | COC(=O)c1sc2cccc(F)c2c1S(=O)(=O)Nc1cc(C)c(Cl)cc1OC | i
131 | CCCCn1c(=O)[nH]c2c(C(=O)N3CCN(c4ccccc4)CC3)snc2c1=O | i

Four of these compounds in another layout.
124. O=C(CNC(=O)c1ccccc1)Nc1cnc(N2CCN(c3ccccn3)CC2)nc1
  GIRK2 act: i

125. Cc1nc(C)c(C(=O)Nc2cnc(Oc3ccccc3F)nc2)s1
  GIRK2 act: i

126. c1ccc(-c2noc(-c3cn[nH]c3-c3ccccc3)n2)cc1
  GIRK2 act: i

127. O=C(Cc1ccc(-c2ccccc2)cc1)N1C2CCC1COC2
  GIRK2 act: i
